TsaE inh – qHTS Assay for Inhibitors of YjeE | purified YjeE, fluorescence polarisation of a bound ADP probe | Potency, µM | 71,000 tested, 0.05% active; active = well fitted falling curve; inconclusive = weaker or top-dose-only fall, or a rising curve; inactive = flat or poorly fitted curve;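 note: top concentration of the series not given in the record; excess ADP was the control for the full effect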
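Fluorescence polarization of a BODIPY Texas Red–ADP probe (2 uM) bound to purified YjeE (10 uM) was read after 15 min room-temperature incubation with compounds. Loss of polarization marks inhibitors; ADP serves as titrated control.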
PK Bst – Pyruvate Kinase | 51,000 tested, 1.2% active | AID 361, 2006 | Potency, µM | partly purified Bacillus stearothermophilus pyruvate kinase, luminescence ATP production; ribose 5-phosphate activator present at AC10; in the data active means potency below about 11 µM; inconclusive means mostly about 12 µM to 25 µM; inactive means weaker than that;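 the screen sought inhibitors and activators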;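 note: potency is the fitted concentration of half-maximal effect; scaled between full activation by ribose 5 phosphate and full inhibition by luteolin; about four in five hits inhibit and the cells do not say which; series up to 57 µM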
Starred values were filed as active, the others as inactive. Not all compounds are listed. The share of hits here may be higher or lower than overall.

How did CC(C)C(OC(=O)C1CCCO1)C(=O)NC1CCCC1 (configuration not stated) do in these assays?
TsaE inh: inactive; PK Bst: >57

What do the screens show for `COc1ccc(OC)c(N=CC2=C(O)CC(C)(C)CC2=O)c1`?
TsaE inh: inactive

How did COc1cc(OC)c2c(c1)OC(c1ccc(OC)c(OC)c1)C(O)C2=O (configuration not stated) do in these assays?
TsaE inh: inactive

What do the screens show for `COc1ccc(NS(=O)(=O)c2ccc(OC)c3ccccc23)cn1`?
TsaE inh: inactive; PK Bst: inconclusive

How did COC(=O)c1ccccc1Nc1cc(C)nc2nc(C)nn12 do in these assays?
TsaE inh: inactive

How did COc1cc(C(C)=O)ccc1OCC(O)CNCC1(N2CCCCC2)CCCCC1 (configuration not stated) do in these assays?
TsaE inh: inactive; PK Bst: >57

Results for O=C(COc1cccc(Oc2ccccc2)c1)Nc1ncccn1 ?
TsaE inh: inactive; PK Bst: >57

What do the screens show for `O=C(COc1ccc(S(=O)(=O)N2CCOCC2)cc1)Nc1ccc2c(c1)OCCO2`?
TsaE inh: inactive; PK Bst: >57

How did COc1ccc(C2c3c(-c4ccccc4O)n[nH]c3C(=O)N2CCc2ccc(OC)c(OC)c2)cc1 (configuration not stated) do in these assays?
TsaE inh: inactive; PK Bst: >57

How did O=C(NCCc1c[nH]c2ccccc12)c1cnc2sccn2c1=O do in these assays?
TsaE inh: inactive

How did COc1cc(/C=C(/C#N)c2ccc(F)cc2)ccc1OCc1ccc(C(=O)O)o1 do in these assays?
TsaE inh: inactive; PK Bst: inactive

How did CCOC(=O)Cn1cc(C(=O)c2cccs2)c2ccccc21 do in these assays?
TsaE inh: inactive; PK Bst: >57

Retrieved by structure from the entries so far, six records:
How did COc1cc(C(C)=O)ccc1OCC(O)CNCC1(N2CCCCC2)CCCCC1 (configuration not stated) do in these assays?
TsaE inh: inactive; PK Bst: >57

Results for O=C(COc1cccc(Oc2ccccc2)c1)Nc1ncccn1 ?
TsaE inh: inactive; PK Bst: >57

How did COc1cc(/C=C(/C#N)c2ccc(F)cc2)ccc1OCc1ccc(C(=O)O)o1 do in these assays?
TsaE inh: inactive; PK Bst: inactive

What do the screens show for `COc1ccc(NS(=O)(=O)c2ccc(OC)c3ccccc23)cn1`?
TsaE inh: inactive; PK Bst: inconclusive

How did COc1ccc(C2c3c(-c4ccccc4O)n[nH]c3C(=O)N2CCc2ccc(OC)c(OC)c2)cc1 (configuration not stated) do in these assays?
TsaE inh: inactive; PK Bst: >57

How did CC(C)C(OC(=O)C1CCCO1)C(=O)NC1CCCC1 (configuration not stated) do in these assays?
TsaE inh: inactive; PK Bst: >57

Going on with the list:
Results for O=S(=O)(Nc1cccnc1)c1cccs1 ?
TsaE inh: inactive; PK Bst: >57

What do the screens show for `Cc1nc(CNS(=O)(=O)c2ccc(Oc3ccccc3)cc2)cs1`?
TsaE inh: inactive; PK Bst: >57

How did CCCOc1ccc(C(=O)N2CCCC2C(=O)O)cc1 (configuration not stated) do in these assays?
TsaE inh: inactive; PK Bst: >57

Results for NCC12CC3CC(C1)CC(CN)(C3)C2 ?
TsaE inh: inactive; PK Bst: >57

What do the screens show for `C#CCN1C(=O)C(O)(CC(=O)c2ccc(OC)c(OC)c2)c2ccccc21` (configuration not stated)?
TsaE inh: inactive

How did COc1ccc(CNc2cc(-c3ccccc3Cl)ncn2)c(OC)c1 do in these assays?
TsaE inh: inactive

What do the screens show for `Cc1cc(C(=O)CSc2nnc(Cc3ccccc3)o2)c(C)n1Cc1ccc2c(c1)OCO2`?
TsaE inh: inactive; PK Bst: >57

How did O=C(NCC1CCCO1)C1CC(=O)N(C2CCCCCC2)C1 (configuration not stated) do in these assays?
TsaE inh: inactive; PK Bst: >57

What do the screens show for `COc1ccccc1CNc1ccnc(-c2ccc(C(=O)N(C)C)cc2)n1`?
TsaE inh: inactive

What do the screens show for `COCCNc1nc(-c2ccccc2CN(C)C)nc2ccccc12`?
TsaE inh: inactive

How did COc1ccc(N(CC(=O)N2c3ccccc3CC2C)S(=O)(=O)c2c(C)nn(C)c2C)cc1 (configuration not stated) do in these assays?
TsaE inh: inactive

What do the screens show for `COc1cccc(CNn2c(-c3cccc(C)c3)nc3ccccc3c2=O)c1O`?
TsaE inh: inactive; PK Bst: >57

Results for Cc1cc(C)c2oc(-c3ccc(Cl)c(NC(=O)c4ccc(C#N)cc4F)c3)nc2c1 ?
TsaE inh: inactive; PK Bst: >57

What do the screens show for `O=C(CSc1nc(-c2ccco2)cc(C(F)(F)F)n1)NCCc1ccccc1`?
TsaE inh: inactive; PK Bst: >57

What do the screens show for `O=C(c1cccs1)N1CCN(C(=O)N2CCOCC2)CC1`?
TsaE inh: inactive; PK Bst: >57

Results for CCOc1ccccc1NC(=O)N1CCC(NC(=O)c2ccccc2C)CC1 ?
TsaE inh: inactive; PK Bst: >57

Results for CSCC[C@H](NC(=O)OC(C)(C)C)c1nnc(SCc2ccc(F)cc2)o1 ?
TsaE inh: inactive; PK Bst: >57

What do the screens show for `CCc1nnc(NC(=O)CSc2nnc(-c3ccccc3O)n2-c2ccc(C)cc2C)s1`?
TsaE inh: inactive; PK Bst: >57

What do the screens show for `CC(C)(C)c1ccc(NC(=O)NCc2ccco2)cc1`?
TsaE inh: inactive

What do the screens show for `O=C(c1ccco1)N1CCN=C1SCc1ccccc1Cl`?
TsaE inh: inactive

What do the screens show for `Cc1nc(NC2CCCCC2)c2nc(-c3ccccc3)n(CCCN3CCCCC3C)c2n1` (configuration not stated)?
TsaE inh: inactive

How did CCC(=O)Nc1cccc(NC(=O)CSc2nnnn2Cc2ccccc2)c1 do in these assays?
TsaE inh: inactive; PK Bst: >57

What do the screens show for `CCNC(=O)CN(CCc1ccccc1)S(C)(=O)=O`?
TsaE inh: inactive; PK Bst: >57

Results for O=C(COc1ncnc2ccccc12)NCc1ccc2c(c1)OCO2 ?
TsaE inh: inactive; PK Bst: >57

Results for CCCC(=O)c1cn(CC(=O)OC)c2ccccc12 ?
TsaE inh: inactive; PK Bst: >57

What do the screens show for `COC(=O)c1cc(OC)c(OC)cc1NC(=O)CSc1nnc(-c2cccnc2)n1C`?
TsaE inh: inactive; PK Bst: >57

How did O=C(CCCC(=O)NCC1CCCO1)NCC1CCCO1 (configuration not stated) do in these assays?
TsaE inh: inactive

Results for CCC(=O)N1CCCc2cc(S(=O)(=O)N3CCN(c4ncccn4)CC3)ccc21 ?
TsaE inh: inactive

How did COc1ccc(N2CCN(C(=O)C3CCC(Cn4c(=S)[nH]c5ccccc5c4=O)CC3)CC2)cc1 (configuration not stated) do in these assays?
TsaE inh: inactive; PK Bst: >57

What do the screens show for `COc1ccc(CN(CC(=O)NC2CCCC2)C(=O)c2onc(C(N)=O)c2N)cc1`?
TsaE inh: inactive; PK Bst: >57

What do the screens show for `O=C(O)c1ccc(N[C@H](c2ccccc2)c2ccc3cccnc3c2O)cc1`?
TsaE inh: inactive

How did COc1cccc(-c2cncnc2-n2ccnc2)c1 do in these assays?
TsaE inh: inactive

How did CCCCc1cc(=O)oc2cc(OCC(=O)N(CC)CC)ccc12 do in these assays?
TsaE inh: inactive

What do the screens show for `O=C(CCCn1c(=S)[nH]c2cc3c(cc2c1=O)OCO3)N1CCc2ccccc2C1`?
TsaE inh: inactive; PK Bst: >57

What do the screens show for `O=C(NCCOC(=O)c1cccs1)c1cccnc1`?
TsaE inh: inactive; PK Bst: >57

Results for Cc1oc(-c2ccc(F)cc2)cc1-c1nn2c(-c3ccco3)nnc2s1 ?
TsaE inh: inactive; PK Bst: inactive

Results for COc1ccc(Oc2ncc3nc(C)c(=O)n(C)c3n2)cc1 ?
TsaE inh: inactive

How did CCN=C(N)CSS(=O)(=O)O do in these assays?
TsaE inh: inactive

Results for CCc1cccc2c1NC(=O)[C@]21[C@@H]2C(=O)N(Cc3ccccc3)C(=O)[C@@H]2[C@@H]2CCCN21 ?
TsaE inh: inactive; PK Bst: >57

What do the screens show for `CC(C)OCCCNC(=O)CN1CCN(Cc2ccccc2Cl)C1=O`?
TsaE inh: inactive; PK Bst: >57

Results for N#Cc1ccc(OC(=O)c2ccc(N=C(N)N)cc2)cc1 ?
TsaE inh: inactive

Results for O=c1c(-c2ccco2)[n+]([O-])c2ccccc2n1OCc1ccccn1 ?
TsaE inh: inactive; PK Bst: >57

What do the screens show for `O=C(CSc1nnc(-c2ccc(Cl)s2)o1)N1CCCc2ccccc21`?
TsaE inh: inactive; PK Bst: >57

How did O=c1[nH]cc(CS(=O)(=O)Cc2c[nH]c(=O)[nH]c2=O)c(=O)[nH]1 do in these assays?
TsaE inh: inactive

Results for O=C(CCCCn1c(=O)[nH]c2ccccc2c1=O)NC1CCN(Cc2ccccc2)CC1 ?
TsaE inh: inactive

Results for Cc1ccccc1-n1nc2c(c1NC(=O)c1c(-c3ccccc3Cl)noc1C)CS(=O)(=O)C2 ?
TsaE inh: inactive; PK Bst: >57

What do the screens show for `CCOC(=O)c1ccc(NS(=O)(=O)c2cc(C)ccc2OC)cc1`?
TsaE inh: inactive; PK Bst: >57

Results for Cc1ccc(NC(=O)COc2nc(C)cs2)cc1 ?
TsaE inh: inactive; PK Bst: >57

By substructure, the entries above containing a thiophene ring, fused or not (five)
How did CCOC(=O)Cn1cc(C(=O)c2cccs2)c2ccccc21 do in these assays?
TsaE inh: inactive; PK Bst: >57

Results for O=S(=O)(Nc1cccnc1)c1cccs1 ?
TsaE inh: inactive; PK Bst: >57

What do the screens show for `O=C(c1cccs1)N1CCN(C(=O)N2CCOCC2)CC1`?
TsaE inh: inactive; PK Bst: >57

What do the screens show for `O=C(NCCOC(=O)c1cccs1)c1cccnc1`?
TsaE inh: inactive; PK Bst: >57

What do the screens show for `O=C(CSc1nnc(-c2ccc(Cl)s2)o1)N1CCCc2ccccc21`?
TsaE inh: inactive; PK Bst: >57

(next part)
How did NC(Cc1ccc(Oc2ccc(O)cc2)cc1)C(=O)O (configuration not stated) do in these assays?
PK Bst: >26

How did CCNc1nc(N)nc(Oc2ccc(OCCOc3ccccc3)nn2)n1 do in these assays?
TsaE inh: inactive; PK Bst: >57

Results for O=C(c1cnccn1)N1CCC2(CCN(Cc3ccncc3)CC2)CC1 ?
TsaE inh: inactive

Results for CC1CCN(c2oc(-c3ccccc3Cl)nc2C#N)CC1 ?
PK Bst: >11

What do the screens show for `CC(C)NC(=O)CSc1nc2ccccc2n1CC(=O)N1CCc2ccccc21`?
TsaE inh: inactive; PK Bst: >57

Results for c1ccc2c(c1)CCCN2Cc1nnc2n1CCCCC2 ?
TsaE inh: inactive; PK Bst: >57

How did CN(C)c1ccc(C2C3C(=O)N(c4ccc(C(=O)O)cc4)C(=O)C3ON2c2ccccc2)cc1 (configuration not stated) do in these assays?
PK Bst: >11

What do the screens show for `COc1ccc(C(=O)N2CCC3(CCN(CC(C)C)CC3)CC2)cc1`?
TsaE inh: inactive

What do the screens show for `O=C1c2ccccc2N[C@H](c2cc(Cl)cc(Cl)c2O)N1CCc1ccccn1`?
TsaE inh: inactive

How did CCOc1ccc2nc(SCC(=O)NC3CCS(=O)(=O)C3)[nH]c2c1 (configuration not stated) do in these assays?
TsaE inh: inactive; PK Bst: >57

Results for CCc1cc(=O)oc2cc(C)c(CN3CCCCC3)c(O)c12 ?
PK Bst: >11

Results for O=C1Nc2ccccc2C1=Nc1cccc2ncccc12 ?
TsaE inh: inactive

Results for CCC(=O)Nc1ccc2c(c1)C(=O)N(C1CCCCC1)C2=O ?
TsaE inh: inactive; PK Bst: >57

What do the screens show for `N#Cc1ccccc1NC1=CC(=O)CCC1`?
TsaE inh: inactive

Results for CCOC(=O)CSc1nc2c([nH]c3ccccc32)c(=O)n1C ?
TsaE inh: inactive; PK Bst: >57

Results for COc1ccc(C(=O)c2ccc(OC)cc2O)c(O)c1 ?
TsaE inh: inactive; PK Bst: >57

What do the screens show for `Cc1ccc(C(=O)Nc2ccccc2NC(=O)c2ccc(C)o2)o1`?
TsaE inh: inactive

Results for COc1cccc(CN2C(=O)CN(C3CCCCC3)C(=O)C2c2ccc(F)cc2)c1 (configuration not stated) ?
TsaE inh: inactive; PK Bst: >57

What do the screens show for `OC1(c2ccc3c(c2)OCO3)CCN(Cc2ccccn2)CC1`?
TsaE inh: inactive; PK Bst: >57

What do the screens show for `CC(C)CN1CCC2(CC1)CCN(S(=O)(=O)c1ccccc1)CC2`?
TsaE inh: inactive

Results for CCCC[C@@H]1C[C@H]1C(NC(=O)c1ccccc1)c1ccc(C(=O)OC)cc1 (some centres not stated) ?
TsaE inh: inactive

Results for CCC(C)NS(=O)(=O)c1ccc(OCC(=O)NCc2cccnc2)cc1 (configuration not stated) ?
TsaE inh: inactive; PK Bst: >57

How did Cc1ccc2cc(C#N)c(N3CCCN(S(=O)(=O)c4ccccc4)CC3)nc2c1 do in these assays?
TsaE inh: inactive; PK Bst: >57

How did CC1CCN(c2nc3c(c(=O)[nH]c(=O)n3C)n2Cc2ccccc2)CC1 do in these assays?
TsaE inh: inactive

How did O=C(O)c1cc(S(=O)(=O)N2CCOCC2)c(Sc2ccccn2)cc1Sc1ccccn1 do in these assays?
TsaE inh: inactive

What do the screens show for `COc1ccc(CCNC(=O)CN2CCC(C(N)=O)CC2)cc1`?
TsaE inh: inactive; PK Bst: >57

What do the screens show for `CCCCNC(=O)CCCCCn1c(=O)[nH]c2cc(OC)c(OC)cc2c1=O`?
TsaE inh: inactive; PK Bst: >57

Results for Cc1cc(C(=O)Cn2cncn2)c(C)n1CCc1ccc(F)cc1 ?
TsaE inh: inactive; PK Bst: >57

How did Cc1ccc(-c2ccc(CCC(=O)O)n2NC(=O)c2ccco2)cc1 do in these assays?
TsaE inh: inactive; PK Bst: >57

What do the screens show for `COc1ccc(NC(=O)N2CC3(CCN(C(=O)c4cccc(F)c4)CC3)C2)cc1`?
TsaE inh: inactive

Results for COCC(=O)Nc1cc(OC)c(Cl)cc1OC ?
TsaE inh: inactive; PK Bst: >57

Screening results as filed in PubChem BioAssay.
